# NPYLR7 ag – agonists of mosquito NPYLR7 receptor, primary screen, cell-based, Aedes aegypti, calcium fluorescence, mosquito biting behavior; Aedes aegypti neuropeptide Y-like receptor 7 (NPYLR7); HEK293T NPYLR7/Galpha15, GCaMP6s calcium fluorescence; activation, % at 10 µM; 270,000 compounds, 0.15% hits; in the data active = activation above about 40%;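 note: 0% = vehicle and 100% = reference agonist at the receptor; some compounds past the cut are filed as inactive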
# NPYLR7 ag max-min – further read-out of NPYLR7 ag, marked with its call; activation, %; measured here: Max-Min RFU normalised activation; some inactives read as strong as hits;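 span of the calcium signal over five minutes; 0% = vehicle and 100% = native peptide agonist; compound fluorescence can raise it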
# * = called active by the depositor; & = joins results of further samples.
# Values in the order – NPYLR7 ag | NPYLR7 ag max-min
COC(=O)c1cc2n(n1)CCN(C(=O)c1ccc(-c3ncc[nH]3)s1)C2
  5 | 6
Cn1nc(-c2ccccc2)c(CN(Cc2ccco2)CC(O)COCc2ccco2)c1Oc1ccc(F)cc1 (stereo not drawn)
  -1 | 12
CCN(CC)S(=O)(=O)c1ccc2c(c1)c(O)c(C#N)c(=O)n2-c1ccc(C)cc1
  -1&-4 | 14&-8
COc1ccccc1CNC(=O)C[C@@H]1c2nc(-c3ccccc3)sc2C[C@@H]2[C@](C)(CO)[C@H](O)CC[C@]21C
  -2 | -8
Cc1oc(-c2ccccc2)nc1CSc1nc2c(c(=O)[nH]1)CCC2
  -4 | -10
CC1=CC(C)C(C2OCC(CN3CCCCC3)O2)C(C)C1 (stereo not drawn)
  -9 | -14
Cc1cc(=O)[nH]c2ccc(O)cc12
  0 | -2
O=[N+]([O-])c1ccc2[nH]c(O)c(N=Nc3ccc(S(=O)(=O)O)cc3)c2c1
  7 | 5
O=C(NC1CCc2ccccc21)c1ccc(-c2ccc3c(c2)OCO3)s1 (stereo not drawn)
  4 | 1
CCc1nc2ccc(C(=O)NCc3ccc4c(c3)OCO4)cn2c1N(CCC(C)C)CCN(C)C
  -5 | -10
CO/N=C(/C(=O)N[C@@H]1C(=O)N2C(C(=O)O)=C(CSc3nc(=O)c(=O)[nH]n3C)CSC12)c1csc(N)n1 (stereo partly drawn)
  4 | -11
CC1CN(S(=O)(=O)CCNCc2ccc(C3CC3C)o2)CC(C)O1 (stereo not drawn)
  -1 | -10
CC(C)c1nccc(CN2CCN(C)C(C(=O)O)C2)n1 (stereo not drawn)
  12 | 8
CS(=O)(=O)NCCCCCC(=O)O
  3 | 11
Cc1c(CC(=O)NCCc2ccco2)c2c(n1CC1CCCO1)CCCC2=O (stereo not drawn)
  -2 | -3
COc1cc(C)c(Cl)cc1S(=O)(=O)N1CCN(c2ccccc2C)CC1
  1 | 1
Cc1sc2ncn(CC(=O)C(C)(C)C)c(=O)c2c1C
  5 | 10
Nc1cc(F)ccc1C(=O)OCC(=O)Nc1cc(F)ccc1F
  -1 | 12
COc1ccc(-n2c(SCC(=O)NC3CCCCC3)nc3c(c2=O)SCC3)cc1OC
  -3 | -4
CCOc1cc(C=C(C#N)C(=O)OC)cc(Cl)c1O
  35 | 33
CC(=O)Nc1c(-c2cc(=O)oc3cc(C)c(C)cc23)oc2ccccc12
  0 | -5
Cn1cc(CN2CCCC(C(=O)N3CCOCC3)C2)c(-c2ccc3c(c2)OCCO3)n1 (stereo not drawn)
  18 | 6
CC1CCc2c(sc(NC(=O)c3ccccc3)c2C(=O)Nc2ccc(Cl)cc2)C1 (stereo not drawn)
  3 | 9
CCC(C)C(NC(=O)CC(C)C)C(=O)Nc1nnc(-c2ccc(Br)cc2)s1 (stereo not drawn)
  -1 | 4
CC(=O)Nc1ccc(NC=C2C(=O)OC(C)(C)OC2=O)cc1
  1 | 3
Cc1cccc(-c2nnc(NC(=O)C(Cc3ccccc3)NC(=O)Nc3ccccc3C(F)(F)F)s2)c1 (stereo not drawn)
  31 | 29
O=C(CNC(=O)c1ccc(OC(F)F)cc1)NCC#Cc1ccccc1
  3 | 0
Cc1ccc(Cc2nc(N3CCCN(C(=O)C4CCCC4)CC3)c3c(-c4cccnc4)noc3n2)cc1
  15 | 4
CCO[C@H]1COC[C@@H]1NC(=O)c1cnc2ccccc2c1
  -2 | -1
COCCn1c(C(=O)Nc2ccc(Oc3ccccc3)cc2)cc2c(=O)n(C)c(=O)n(C)c21
  0 | -2
COc1cn(CC(=O)Nc2ccccc2C)c(CSc2nccc(C)n2)cc1=O
  -4 | -15
CCCCN(CCCC)CCCCSc1ccc(O)cc1
  1 | 0
Brc1ccc2c(c1)c(-c1ccccc1)nc1nnnn12
  0 | -1
CC(C)C(=O)N(Cc1cccc(Cl)c1)CC1CC(c2cccnc2)=NO1 (stereo not drawn)
  15 | 15
O=C(NC(C(=O)N1CCOCC1)C1CCN(C(=O)c2cccc(F)c2)CC1)c1ccccc1 (stereo not drawn)
  7 | 5
Cc1ccc(Cn2ccn(Cc3c(F)cccc3Cl)c(=O)c2=O)cc1
  -2 | -2
CCCOC1(CN)CCCCC1
  4 | 1
O=c1oc2ccccc2cc1-c1nnc(Nc2ccc(Br)cc2)s1
  9 | 5
Cc1ccc(Nc2[nH]c(=O)c3ccccc3c2C(=O)c2ccccc2)cc1
  8 | 8
Cc1ccc(/C=C/S(=O)(=O)NC(C)CC#N)cc1 (stereo not drawn)
  0 | 4
O=C(c1cnccn1)N1CC[C@@H](c2ccc3ccccc3c2)[C@H](O)C1
  3 | 3
C=CCN(Cc1nccn1Cc1ccccc1C)C(=O)c1ccco1
  22 | 13
COC(=O)c1ccc(CN2CCc3c(cccc3NC(=O)c3ccncc3)C2)cc1
  2 | 1
Cc1cc(C)n2c(C(=O)N3CCc4c(nc(C)nc4N(C)C)C3)nnc2n1
  4 | 0
CCn1c(SCC(=O)N/N=C\c2cccc(OC)c2OC)nc2ccccc21
  2 | 6
Cc1cc(Br)c(OCc2cc(C)on2)c(Br)c1
  2 | -2
COc1cc(OC)c(NS(=O)(=O)c2c(F)cc(F)cc2Br)cc1Cl
  -3 | -4
Cc1ccc(S(=O)(=O)N2CCC3(CC2)C(=O)N(CC(=O)NCCc2ccc(Cl)cc2Cl)CN3c2ccccc2)cc1
  -7 | 4
COCCn1c(=O)c2c(nc3n(-c4ccc(OC)cc4OC)c(C)cn23)n(C)c1=O
  17 | 6
CCCSc1nc(N2CCOCC2)c2c(c1C#N)CC(C)(C)OC2
  1 | -2
CCOc1ccc(-c2cc(=O)n(CC(=O)Nc3ccccn3)cn2)cc1
  3 | -1
CN(Cc1ccc(Br)cc1)C(=O)C1CCCc2[nH]ncc21 (stereo not drawn)
  -5&3 | -7&-12
NC(=O)C1CCCCN1C(=O)COC(=O)c1ccccn1 (stereo not drawn)
  11 | 6
CC(C)CS(=O)(=O)CC(=O)N1CCCN(c2cccnn2)CC1
  4 | 2
CN1CC2(CCCN(C(=O)c3cn4cccnc4n3)C2)OC1=O (stereo not drawn)
  3 | 1
CC(=O)c1ccc(NC(=O)CCc2c(C)[nH]c(=O)[nH]c2=O)cc1
  -3 | -4
CCOc1ccc(C(=O)N2CC(=O)N3CC(C)c4ccccc4C3C2)cc1 (stereo not drawn)
  -11 | -2
O=C(CCCc1cccs1)NCc1cccnc1-n1cnc2ccccc21
  -2 | -4
COCCN(CC(=O)N(CCc1c[nH]c2ccccc12)Cc1ccc(OC)c(OC)c1)C(=O)NC(C)(C)C
  -1 | -8
CN(Cc1nnc(C2CC2)n1C)C1CCN(C2CCOC2=O)C1 (stereo not drawn)
  -1 | -2

# Grouped by structure, those above with an aryl thioether with sulfur outside any ring (seven)
# Values in the order – NPYLR7 ag | NPYLR7 ag max-min
Cc1oc(-c2ccccc2)nc1CSc1nc2c(c(=O)[nH]1)CCC2
  -4 | -10
CO/N=C(/C(=O)N[C@@H]1C(=O)N2C(C(=O)O)=C(CSc3nc(=O)c(=O)[nH]n3C)CSC12)c1csc(N)n1 (stereo partly drawn)
  4 | -11
COc1ccc(-n2c(SCC(=O)NC3CCCCC3)nc3c(c2=O)SCC3)cc1OC
  -3 | -4
COc1cn(CC(=O)Nc2ccccc2C)c(CSc2nccc(C)n2)cc1=O
  -4 | -15
CCCCN(CCCC)CCCCSc1ccc(O)cc1
  1 | 0
CCn1c(SCC(=O)N/N=C\c2cccc(OC)c2OC)nc2ccccc21
  2 | 6
CCCSc1nc(N2CCOCC2)c2c(c1C#N)CC(C)(C)OC2
  1 | -2

# Carrying on:
# Values in the order – NPYLR7 ag | NPYLR7 ag max-min
COc1cc(OC)cc(C(=O)N2CCN(C3=NS(=O)(=O)c4ccccc43)CC2)c1
  2 | -2
COc1ccc(C(NC(=O)N2CC(C)OC(C)C2)C(Cl)(Cl)Cl)cc1F (stereo not drawn)
  3 | 2
CN1CCN(CCC2CCCCN2C(=O)c2coc3ccccc23)CC1 (stereo not drawn)
  5 | 4
Cc1ccccc1-n1nc2c(c1NC(=O)c1ccc(S(=O)(=O)N(C)C)cc1)CSC2
  1 | 9
COc1ccc(-n2ncc(Oc3cccc(C)c3C)c(Nc3cccc(C(=O)NCCc4ccccn4)c3)c2=O)cc1
  8 | 19
CC(C)(C)c1nc(CN2C[C@@H]3[C@H](C2)[C@H]2CC[C@@H]3O2)no1
  -3 | -4
Cc1cccc(C(C2Sc3nc(C)nn3C2=O)N2CCc3ccccc3C2)c1 (stereo not drawn)
  -7 | -11
CCOC(=O)c1cnc(SCC(=O)NCCOC)nc1N
  13 | 5
CCC(c1cccnc1)N(C)Cc1ncc[nH]1 (stereo not drawn)
  0 | -1
COCCCN(CC(=O)N1CCc2sccc2C1COc1cccc(OC)c1)C(=O)c1ccc(F)cc1 (stereo not drawn)
  -1 | 7
COC(=O)c1c(Cl)c(Cl)c(C(=O)OC)c(Cl)c1Cl
  -2 | -12
CCNC(=O)Nc1ccc2c(c1)c(=O)n(C)n2CC=C(C)C
  7 | 2
CC(Cl)C(=O)N1CCC(Cc2ccc(-c3ccccc3)cc2)CC1 (stereo not drawn)
  20 | 13
C=CCNc1nnc(SCC(=O)NNC(=O)c2ccc(Br)cc2)s1
  6 | 10
Cc1ccc2occ(/C=N\NC(=O)CCC(=O)Nc3ccc(C(=O)O)cc3)c(=O)c2c1
  4 | 6

# Following part:
compound | NPYLR7 ag | NPYLR7 ag max-min
CCc1cc(N2CCCC2)nc(SCc2ccc(C(=O)NCc3ccco3)cc2)n1 | -6 | -4
CCOC(=O)C(CC)Sc1nc2c(c(=O)n1C)SC(C)C2 (stereo not drawn) | -13 | -12
Cc1c(C(=O)N2CCN(C)CC2)c(C(F)(F)F)nn1C1CCCN(C)C1 (stereo not drawn) | -4 | -4
COc1cc(OC)cc(C(=O)N(Cc2ccco2)Cc2cc3ccccc3o2)c1 | -27 | -30
COc1cc(OC)cc(OC)c1 | 15 | 12
CC(=O)NCCn1ncc2c(N3CCN(c4ccccc4)CC3)ncnc21 | -3 | -3
CCOC(=O)CCCSc1nnc(-c2ccccc2Cl)n1-c1ccccc1Cl | -2 | 7
CC1Cc2cc(C(=O)N3CCn4nc(C(=O)NCCN(C)C)cc4C3)ccc2O1 (stereo not drawn) | -14 | -16
CCOC(=O)C1CCCN(C(=O)c2nn(-c3ccc(F)cc3)c(=O)n(Cc3cccc(Cl)c3)c2=O)C1 (stereo not drawn) | 12 | 10
CC(CNC(=O)c1cc(=O)c2ccccc2[nH]1)Oc1cccnc1 (stereo not drawn) | -1 | -1
COc1cccc(-c2cn(CCCN3CCCC3=O)nn2)c1OC | -1 | 4
O=C(Cn1cnc2c(cnn2-c2ccccc2)c1=O)N1CCCC1 | 5 | 1
O=C(Cc1ccccc1)Nc1sc2c(c1C(=O)Nc1ccccc1)CCCC2 | -3 | -17
CS(=O)(=O)NC1CCCN(Cn2ccc(-c3ccsc3)n2)C1 (stereo not drawn) | 0 | 9
CCCCCC(=O)Nc1c(-c2ccc(OC)cc2)nc2ccc(C)cn12 | -4 | -2
CNC(=O)c1nnc2n1C(c1ccccc1)CN(C(=O)c1ccc(Oc3ccccn3)cc1)C2 (stereo not drawn) | 4 | 2
COc1ccccc1C(=O)N1CC(=O)N(Cc2ccc3c(c2)OCO3)CC(O)C1 (stereo not drawn) | 5 | 17
O=[N+]([O-])c1cccc(-c2ccc(SCc3cccnc3)nn2)c1 | -1 | -1
COc1ccc(N2CCN(C(=O)CCCCSc3nnc(Cc4ccccc4)n3-c3ccc(Cl)c(Cl)c3)CC2)cc1 | -3 | 6
CC1=C(C(N)=O)C(c2cccs2)NC(=O)N1 (stereo not drawn) | 2 | -3
CC(C)N(C)S(=O)(=O)c1ccc(NC(=O)CCl)cc1 | -6 | -8
COc1cccc(NC(=O)CCC2CCN(C(=O)c3cccnc3SC)CC2)c1 | 6 | -1
Cc1cc([N+](=O)[O-])ccc1-c1ccc(/C=C2\NC(=S)NC2=O)o1 | 8 | 13
COc1ccccc1C1CN(CCNC(=O)c2ccc3c(c2)OCCO3)Cc2ccccc2O1 (stereo not drawn) | -3 | -8
O=C(NCc1cccnc1Oc1cccc(C(F)(F)F)c1)c1ccsc1 | 1 | 1
CCOCCCn1c(SCc2ccccc2OC)nc2cc(C(=O)OCC)ccc21 | 6 | 7
CCCC12CN(C(C)=O)CC(CCC)(CN(C(C)=O)C1)C2=O | 2 | -1
COc1ccccc1C(=O)N(Cc1nc2cc(Cl)ccc2o1)C1CCCC1 | 6 | 10
Cc1ccc(OCCN2CCC2(C)C(=O)Nc2ccc3c(c2)OCCO3)cc1 (stereo not drawn) | -3 | -7
O=C1OC(c2ccc(F)cc2)=NC1=Cc1ccc(Cl)s1 | 2 | 2
COCC(=O)N(CC(=O)N(Cc1cccn1Cc1ccccc1Cl)C1CCCCC1)CC(C)C | -7 | -4
COc1cc(CN2CCC(CNS(C)(=O)=O)C2)cc(OC)c1 (stereo not drawn) | 7 | 5
Cc1cc(N(CCCCO)C2CC2)nc(-c2ccccn2)n1 | 0 | 0
O=C(Cn1ncc(Cl)c(Cl)c1=O)NCC12CC3CC(CC(C3)C1)C2 | 3 | 8
COCc1ccc(NC(=O)/C(C)=C/C(=O)O)cc1 | 1 | 1
COC(=O)c1sccc1NC(=O)CN1NC(=O)CC1C (stereo not drawn) | 11 | 10
COc1cc(OC)c(NC(=O)c2cc3cc(F)ccc3s2)cc1Cl | 7 | 3
O=C(NCc1cccs1)c1cc(COc2cccc(F)c2)[nH]n1 | 6 | 1
COc1cc(Cl)ccc1NC(=O)c1cnn2c(C(F)(F)F)cc(-c3cccs3)nc12 | 23 | 28
O=C(O)c1csc(-c2ccc(OCc3cc(F)cc(F)c3)cc2F)n1 | 26 | 14
COc1cccc(NC(=O)N2CCc3ccccc3C2c2ccc(C)cc2)c1 (stereo not drawn) | 3 | 9
CC(C)NC(=O)c1cnn2c1NC(c1ccc(F)cc1)CC2C(F)(F)F (stereo not drawn) | 0 | -7

# High-throughput results deposited in PubChem by Fisher Drug Discovery Resource Center.

# Only part of the results is shown, so the mix of outcomes need not match the whole.
